Compound activity: PubChem, Fisher Drug Discovery Resource Center
NPYLR7 agonist = activates Aedes aegypti NPYLR7 receptor; HEK293T NPYLR7/Galpha15, GCaMP6s calcium fluorescence; activation, % at 10 µM; actives 0.15% (n = 270,000); in the data active = activation above about 40%;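 also: 0% = vehicle and 100% = reference agonist at the receptor; some compounds past the cut are filed as inactive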
NPYLR7 agonist max-min = second read-out of NPYLR7 agonist, no call of its own (marks repeat the call); activation, %; measured here: Max-Min RFU normalised activation; some inactives read as strong as hits;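 span of the calcium signal over five minutes; 0% = vehicle and 100% = native peptide agonist; compound fluorescence can raise it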
Numbers without * were called inactive; & = joins results of further samples.

Order of results: NPYLR7 agonist	NPYLR7 agonist max-min
CN(Cc1cn[nH]c1-c1ccccc1)C(=O)c1cccc(C#CC(C)(C)O)c1
    -6	-11
NC(=O)CCN(C(=O)c1ccc2ccccc2c1)c1ccccc1Cl
    4	5
O=C(NCc1cccs1)c1nn2c(C(F)(F)F)cc(-c3ccccc3)nc2c1Cl
    -17	-23
C#CCNc1ccccc1CN1CCC(CO)CC1
    0	-4
O=C(CN(C(=O)c1ccc(F)cc1)C1CC1)N(CCc1c[nH]c2ccccc12)Cc1ccc(Cl)c(Cl)c1
    -3	0
CS(=O)(=O)NC1CCN(Cc2ccc(-c3ccn[nH]3)o2)CC1
    15	11
COC(=O)c1sc(N)c(C(=O)OC)c1COC(=O)CC1CCCC1
    10	9
Cc1cccc(CN(Cc2ccco2)CC(O)COCc2ccco2)c1 (stereo not drawn)
    -2	1
CCCN1C(=O)C(c2c(C)[nH]n(-c3ccc(Cl)c(Cl)c3)c2=O)=C([n+]2cccc(C)c2)C1=O
    7	12
CN1CCC2(CCCN(Cc3cc4n(n3)CCCNC4)C2)C1 (stereo not drawn)
    -2	-8
CCOc1ccc(S(=O)(=O)N2CCC(c3nncn3C)CC2)cc1
    11	5
Cc1cc(Sc2ncn[nH]2)c2c(Cl)ccc(Cl)c2n1
    11	4
COc1cc(C=C2SC(=NS(=O)(=O)c3ccccc3)NC2=O)c([N+](=O)[O-])cc1OC
    -4	-7
CC(C)C(CNC(=O)C1CN(c2nccn3cnnc23)CC1C)N1CCOCC1 (stereo not drawn)
    1	1
N#Cc1ccc(CSC2=NCCCN2)cc1
    4	5
CCCC(=O)N1CCCC1(C)C(=O)Nc1cc(OC)ccc1OC (stereo not drawn)
    5	3
Cc1ncc2c(c1CNC(=O)/C=C/c1cccs1)CCN(C(=O)COc1ccccc1)C2
    -5	-4
CCN1CCCC(C)(C(=O)N2CCc3c(nc(N(C)C)[nH]c3=O)C2)C1 (stereo not drawn)
    -2	-6
Cc1ccccc1-c1onc(C)c1C(=O)NCc1cccs1
    -1	3
COCC1CCCN(C(=O)c2ccc(-c3cccnc3)nc2)C1 (stereo not drawn)
    -4	-4

In the list so far, these have a thiophene ring, fused or not:
Order of results: NPYLR7 agonist	NPYLR7 agonist max-min
O=C(NCc1cccs1)c1nn2c(C(F)(F)F)cc(-c3ccccc3)nc2c1Cl
    -17	-23
COC(=O)c1sc(N)c(C(=O)OC)c1COC(=O)CC1CCCC1
    10	9
Cc1ncc2c(c1CNC(=O)/C=C/c1cccs1)CCN(C(=O)COc1ccccc1)C2
    -5	-4
Cc1ccccc1-c1onc(C)c1C(=O)NCc1cccs1
    -1	3

(listing goes on)
Order of results: NPYLR7 agonist	NPYLR7 agonist max-min
Cc1nc(-n2nc(-c3cccs3)cc2NC(=O)C2CC2)[nH]c(=O)c1C
    -2	-4
O=C(COc1ccc(Cl)cc1)N1CCCC(OCc2ccccc2F)C1 (stereo not drawn)
    -8	-2
CNc1cc(-c2cc(C(C)C)nc(C(F)(F)F)n2)c2cc[nH]c2n1
    11	8
COc1ccc(CC(=O)Nc2cc(C)nn2-c2nc3ccccc3s2)cc1
    -13	-19
Cc1cccc(OCC(=O)Nn2cnc3c(cnn3-c3ccc(C)c(C)c3)c2=O)c1
    3	3
CCCCN(C)c1c(C)nc2ccc(C(=O)N3CCNC(=O)C3)cn12
    -4	-9
N#Cc1cccc(CSc2nc(Oc3cccc(F)c3)cc(-c3ccccc3)n2)c1
    5	16
COc1cc(=O)n(-c2ccc(F)cc2)nc1C(=O)NCC(OC)OC
    15	11
C=CCCC(=O)N1CCN(c2nccc(-c3ccc(OCC)cc3)n2)CC1
    -2	6
NC(=O)CCn1cc(CN2CCC3(CCOCC3)CC2)c2ccccc21
    -1	0
c1ccc(COC2CCN(Cc3cccnc3)CC2)cc1
    2	2
COc1ccc(-c2nc3c(OCc4ccccc4)cccn3c2NCc2ccccc2)cc1OC
    -2	5
Cc1cccc(/C=C2/SC(=S)N(CC(=O)O)C2=O)c1
    3	3
C=CCCC(O)CN(CCOC)Cc1c(CC)nn(-c2ccccc2)c1Oc1ccc(C)cc1 (stereo not drawn)
    1	8
Cc1nonc1CN(C)C(=O)c1ccccc1NCc1cccs1
    -2	-3
CCC(C)N(C(=O)CN1CCN(c2ccc(F)cc2)CC1)C1CCS(=O)(=O)C1 (stereo not drawn)
    -2	-4
CC1CN(Cc2ccco2)c2nc3c(c(=O)[nH]c(=O)n3C)n2C1 (stereo not drawn)
    1	-2
COc1ccc(-n2c(CCC(=O)NCC3CCCO3)ccc2-c2ccc(Cl)cc2)cc1 (stereo not drawn)
    5	1
COC[C@H]1C[C@H]2C[C@@H](Oc3ccccn3)[C@H](N3CCN(C4CCCCC4)CC3)[C@]2(O)CO1
    5	10
CCn1ncnc1CN1CCOc2c(cc(-c3cccc(OC)n3)cc2OC)C1
    3	2
CCOC(=O)CC1Nc2nc3ccccc3n2C1=O (stereo not drawn)
    20	10
COc1cc(OC)cc(-c2cc3c(Nc4ccc(OC)nc4)nccc3n2C)c1
    -8	-12
O=C(NCCCn1nc(-c2ccccc2)ccc1=O)C1c2ccccc2Oc2ccccc21
    0	-1
COc1ccc(-n2c(SCc3ccc(C(=O)Nc4ccc5c(c4)OCO5)cc3)nnc2-c2ccco2)cc1
    -14	-2
COc1ccc(-c2csc(-n3[nH]c(C)c(N=Nc4ccc(Cl)cc4)c3=O)n2)cc1
    -3	-7
CC(=O)Cn1c(=O)c2c(nc3n(-c4cc(Cl)ccc4C)c(C)cn23)n(C)c1=O
    -1	11
O=[N+]([O-])c1ccccc1NN=C1CC2CC=CC12 (stereo not drawn)
    -7	-13
CCCCn1c(=N)c(C#N)cc2c(=O)n3cccc(C)c3nc21
    1	2
COc1ccc(NC(=O)C2CCN(C(=O)[C@@H](Cc3ccccc3)NC(=O)Nc3c(F)cccc3F)CC2)cc1
    3	1
NCc1nc2c(nnn2Cc2ccccc2)c(=O)[nH]1
    -1	12
CCCC1CN(CCOc2ccccc2)C(=O)c2cccnc2O1 (stereo not drawn)
    -5	-3
O=C(c1cccc(Cn2cccn2)c1)N1CCc2c([nH]c3ccccc23)C1c1ccccn1 (stereo not drawn)
    2&-2	-2&-3
Cc1ccccc1-c1nc2scc(CCNS(=O)(=O)c3ccccc3Cl)n2n1
    22	15
CCSc1nnc(NC(=O)c2csc3c2CCC(C)C3)s1 (stereo not drawn)
    2	4
Cc1ccc(C(=O)Nc2cc(-c3cn4cccnc4n3)ccc2C)cc1
    7	10
Cc1cc(-n2c(C)cc(-c3csc(N4CCN(C)CC4)n3)c2C)no1
    1	4
CC(C)(C)N1C(=O)c2ccccc2C1(O)C(=O)c1ccccc1 (stereo not drawn)
    -3	-5
COc1ccccc1C(=O)NCCc1nc(C2CCCCC2)no1
    8	6
COCCNC(=O)C1CCCN(C2CCN(c3ncc(F)cn3)CC2)C1 (stereo not drawn)
    33	29
O=C(CN1C(=O)CC2(CCCC2)C1=O)c1ccc(Cl)s1
    -4	7
CC(C)(C)c1nn2cnnc2n(/N=C\c2ccc(Cl)cc2)c1=O
    1	-3
NCC1Cc2cc(-c3ccc(S(N)(=O)=O)cc3F)cc(Cl)c2O1 (stereo not drawn)
    -1	2
COc1ccc(N2C(=O)CN=C2Nc2nc(C)cc(C)n2)cc1OC
    2	0
Cc1cc(CNC(=O)C2CSC(Cc3ccccc3F)C(=O)N2)on1 (stereo not drawn)
    2	1
C=CCNc1sc(C(=O)C(C)(C)C)c(N)c1C#N
    12	4
O=C(C1CCN(C2CCc3c(F)ccc(F)c32)CC1)N1CCCCCC1 (stereo not drawn)
    5	5
O=C(NC(c1ccc2c(c1)CCC2)c1cccs1)c1cnccn1 (stereo not drawn)
    -2	-1
CC1=NN(c2nc(C)cc(C)n2)C(=O)C1Cc1ccc(Cl)cc1 (stereo not drawn)
    12	2
CCc1cccc(C)c1NC(=O)Cn1nc(-c2cccs2)c2sc(N3CCCCC3)nc2c1=O
    -1	-5
O=C(NC(c1ccccn1)C1CCCC1)c1cc(Br)ccc1Cl (stereo not drawn)
    0	-2
CCN(Cc1cccc(C(=O)Nc2ncc(C)s2)c1)[C@H]1COC[C@@H]1O
    1	19
CC1CCCN1CC(=O)Nc1cccc(Oc2cccnn2)c1 (stereo not drawn)
    -6	-8
Cn1cc(S(=O)(=O)N2CCN(C(=O)CCCOc3ccc(C(C)(C)C)cc3)CC2)cc1C(N)=O
    6	3
O=C(NCc1ccccc1-n1cccn1)c1cc(C2CC2)[nH]n1
    12	5
CC(=O)OCC(=O)[C@@]1(OC(C)=O)[C@@H](C)CC2C3C[C@H](F)C4=CC(=O)C=C[C@]4(C)[C@@]3(F)[C@@H](O)C[C@@]21C (stereo partly drawn)
    0	-9
Brc1ccc(OCCn2c3ccccc3c3nc4ccccc4nc32)cc1
    1	1
Cc1cc(C(=O)CSc2ncn[nH]2)c(C)n1CC(F)(F)F
    3	2
O=C(NCCN1CCOCC1)c1nn(-c2ccc(Cl)cc2)c(=O)n(Cc2cccc(Cl)c2)c1=O
    2	5
COc1cc(Cl)c(C)cc1NC(=O)CN1CCN(c2cccc(C(F)(F)F)c2)CC1
    -3	-5
Cc1ccc(CNc2ccc(S(=O)(=O)N3CCN(C)CC3)cc2[N+](=O)[O-])cc1F
    -5	-2

Next section:
Order of results: NPYLR7 agonist	NPYLR7 agonist max-min
COCCc1nc2ccc(C(=O)NCC3(c4ccc(OC)cc4)CCCC3)cc2o1
    17	6
COC=C1N=C(c2sc(C)nc2C)ON1
    0	-1
COc1ccc(-n2nnc3c(=O)n(CC(=O)NCc4ccccc4)cnc32)cc1
    10	8
O=C(C1CCCCN1C(=O)/C=C/c1ccsc1)N1CCOCC1 (stereo not drawn)
    11	10
S=C(NCc1nc2ccccc2[nH]1)NC1CC2CCC1C2 (stereo not drawn)
    0	21
C[C@]12CC[C@@H]3c4ccc(O)cc4CC[C@H]3[C@@H]1CC[C@@H]2O
    -7&-10&1	-10&-16&-28
O=[N+]([O-])c1ccc(C=NNc2ccc3ccccc3c2)o1
    8	7
S=c1oc(-c2ccncc2)nn1CN1CCN(c2ccccc2)CC1
    -3	-13
COc1ccc(-n2c(SCCC#N)nnc2-c2ccccc2Cl)cc1
    6	3
Cc1ccc(CN2CCN(Cc3cn[nH]c3C3CCCCC3)CC2CCO)cc1 (stereo not drawn)
    1	-3
O=C(O)C1CCCCN1C(=O)c1cc(-c2ccccc2Cl)on1 (stereo not drawn)
    20	10
CCCCOc1ccc(C(=O)Nc2cc(C)nn2-c2nc(C)c(C)c(=O)[nH]2)cc1
    -2	-6
COc1ccc(Cl)cc1Cn1c(C)c(C(=O)NCc2ccc3c(c2)OCCO3)sc1=O
    -7	-5
COc1ccccc1-c1cc(C(=O)N2CCN(c3cccc(C(F)(F)F)c3)CC2)n2nc(-c3ccc(Cl)cc3)cc2n1
    -5	-1
Cc1csc(C2(NC(=O)NCCN3CCOCC3)CCCC2)n1
    -9	-8
CCc1ccc(N2CC(C(=O)N(C)CC(=O)Nc3c(Cl)cccc3Cl)CC2=O)cc1 (stereo not drawn)
    0	-1
O=C(c1ccc(-n2cnnn2)cc1O)N1CCCC(CCc2ccccc2)C1 (stereo not drawn)
    9	9
FC(F)(F)c1cccc(-c2nnn3c2nc(NCc2ccco2)c2ccccc23)c1
    -7	-11
CCOC(=O)C1=C(c2ccccc2)Nc2nc(C)nn2C1c1ccc(OC)c(OC)c1 (stereo not drawn)
    2	44
N#CCCCSc1nc(-c2cccc(Oc3ccccc3)c2)[nH]c1-c1ccccc1
    9	11
CC(C)OC(=NC(=O)c1cccc(F)c1)N(CCc1ccccc1)Cc1ccccc1
    20	17
COCC(=O)Nc1ccc(N(C)C)c(CN(C(=O)c2ccccc2Cl)C2CC2)c1
    9	18
NS(=O)(=O)Nc1cccc(CNC(=O)Cc2ccc(Cl)cc2Cl)c1
    8	8
CCCCn1ncc(C)c1NC(=O)C(NC(C)=O)C(C)C (stereo not drawn)
    1	-1
CC(NC(=O)C1=NNC(=O)CC1)C1CC2CCC1C2 (stereo not drawn)
    -11	-15
COc1ccc(-c2c3c(=O)n(C)c(=O)n(C)c3cn2Cc2ccccc2)cc1
    -19	-21
CCOC(=O)C=CC(=O)OCC1=C(C(=O)OCC)C(C)NC(=O)N1 (stereo not drawn)
    5	3
CS(=O)(=O)c1ccc(CN2C(=O)C(Cc3ccccc3)ON=C2c2cccc(F)c2)cc1 (stereo not drawn)
    2	0
COC(=O)C1(C(=O)N[C@H](CO)Cc2ccccc2)CC1
    2	-2
CC(=O)Oc1c(-c2ccc(NC(=O)Cc3ccccc3)cc2)c(C2CC2)nn1-c1cccc(F)c1
    -2	1
Cc1nn2c(NCC(C)C)cc(C(C)C)nc2c1-c1ccccc1
    0	8
Cc1cc(S(=O)(=O)N(C)C)cc(NCc2ccccc2C#N)c1C
    2	0
O=C(CSc1nc2c(c(=O)n1CCc1ccccc1)SCC2)NCc1ccccc1
    31	19
COc1ccc(CCNC(=O)c2c(C)noc2-c2ccccc2Cl)cc1OC
    -4	0

A portion of the library. The share of hits here may be higher or lower than overall.
